NPYLR7 agonist: activates Aedes aegypti NPYLR7 receptor; HEK293T NPYLR7/Galpha15, GCaMP6s calcium fluorescence; activation, % at 10 µM; 0.15% of 270,000 active; in the data active = activation above about 40%;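 note: 0% = vehicle and 100% = reference agonist at the receptor; some compounds past the cut are filed as inactive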
NPYLR7 agonist max-min: further read-out of NPYLR7 agonist, marked with its call; activation, %; measured here: Max-Min RFU normalised activation; some inactives read as strong as hits;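 span of the calcium signal over five minutes; 0% = vehicle and 100% = native peptide agonist; compound fluorescence can raise it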
* marks the source's active call; other numbers are inactive results. Some of the compounds tested (hit frequency here may not be typical).

#1 CCOc1cc2nc3c4ccccc4n(CC(C)C)c3nc2cc1OCC
#2 CCC(C)C(=O)NCC(=O)NC1CN(C(=O)OC(C)(C)C)C1 (centres undefined)
#3 CC(C)(C)c1ccc(OCCOc2ccc(/C=N\n3cnnc3)cc2)cc1
#4 COC(=O)c1sccc1NC(=O)COc1cccc(F)c1
#5 COc1ccc(Cn2ccnc2CN(CCN(C)C)C(=O)C(C)C)cc1
#6 CCN1C(=S)NC(c2ccc(NC(=O)C(c3ccccc3)c3ccccc3)cc2)C(C(=O)OC)=C1C (centres undefined)
assay / compound | 1 | 2 | 3 | 4 | 5 | 6
NPYLR7 agonist | 3 | -1 | 2 | 6 | 6 | -7
NPYLR7 agonist max-min | 5 | -5 | 1 | 5 | 9 | -2

#7 CCOC(=O)C1CCN(C(c2ccccn2)c2c(O)cc(C)n(CC)c2=O)CC1 (centres undefined)
#8 Cc1cccc(NC(=O)c2c(O)c3ccccc3n(C)c2=O)n1
#9 COCCN(CC(=O)Nc1nc(CC(=O)N2CCN(c3ccccc3C)CC2)cs1)C(=O)C1CCCCC1
#10 CCn1cc(C(CC(=O)N(C)CCc2ccc(OC)c(OC)c2)c2cccc(F)c2)c2ccccc21 (centres undefined)
#11 Fc1ccc(CN2CCCn3cccc3C2c2cccc(C(F)(F)F)c2)cc1F (centres undefined)
#12 Cc1ccc(-c2csc(NC(=O)CN3C(=O)NC(C)(C4CC4)C3=O)n2)s1 (centres undefined)
assay / compound | 7 | 8 | 9 | 10 | 11 | 12
NPYLR7 agonist | 12 | 1 | 16 | 0 | 7 | -4
NPYLR7 agonist max-min | 4 | 0 | 17 | 12 | 19 | -2

#13 O=C(c1ccccc1Cl)N1CCN(c2nc(C3CCOCC3)nc3c2cnn3-c2ccccc2)CC1
#14 COc1ccc(CCN(C)C2CCCN(C(=O)/C=C/c3cnc[nH]3)C2)cc1OC (centres undefined)
#15 Cn1cc(CN2CCC(CO)(Cc3ccccc3Cl)CC2)cn1
#16 CCSCCNC(=O)c1ccc(-c2cc(-c3cccc4c3OCCO4)[nH]n2)cc1
#17 COc1cccc(Oc2cnc(N)nc2-c2ccc(OCc3ccccc3)cc2O)c1
#18 COc1cc(O)ccc1C(C)=O
assay / compound | 13 | 14 | 15 | 16 | 17 | 18
NPYLR7 agonist | -12 | 0 | 9 | 6 | 4 | -6
NPYLR7 agonist max-min | -11 | -2 | 4 | -1 | 1 | -11

#19 Cc1ccccc1C(NC1CCN(c2ccc(NC(=O)c3ccccc3F)cc2)CC1)c1ccncc1 (centres undefined)
#20 C=CCn1c(=O)c2c(OCC)c(CC)cnc2n(C)c1=O
#21 CN(C)c1nc2nonc2nc1NCCc1cnn(-c2ccccc2)c1
#22 O=S(=O)(c1ccc(Cl)c(C(F)(F)F)c1)N1c2cccc3cccc(c23)S1(=O)=O
#23 CSc1nnc2c(n1)OC(c1cc(Br)ccc1O)Nc1ccccc1-2 (centres undefined)
#24 Cc1ccc(S(=O)(=O)N2CCN(c3ccc(-n4cccn4)nn3)CC2)c(C)c1
assay / compound | 19 | 20 | 21 | 22 | 23 | 24
NPYLR7 agonist | 2 | -2 | 3 | 0 | 1 | -3
NPYLR7 agonist max-min | 0 | -2 | -2 | -2 | 3 | -11

#25 COC(=O)c1ccc(C(=O)N2CCC(c3nc(-c4ccc5c(c4)OCO5)no3)CC2)cc1
#26 COc1ccc(C(=O)N2CCc3nc(Nc4cccc(C)c4)ncc3C2)cc1
#27 NC(=O)Cn1nc(C2CC2)c2cnn(-c3cccc(Cl)c3)c2c1=O
#28 CNC(=O)NC(=O)C(C)Sc1nnc(Nc2ccc(C)cc2)s1 (centres undefined)
#29 CCCn1c(COc2ccc(OC)cc2)nc2ccccc21
#30 Cc1cc(F)ccc1S(=O)(=O)N(CC(N)=O)C(C)C
assay / compound | 25 | 26 | 27 | 28 | 29 | 30
NPYLR7 agonist | 2 | -4 | 1 | -2 | -4 | 3
NPYLR7 agonist max-min | -1 | -11 | 0 | 0 | -10 | 3

Four entries out of the list, ordered by molar mass, rising.
#30 Cc1cc(F)ccc1S(=O)(=O)N(CC(N)=O)C(C)C
#26 COc1ccc(C(=O)N2CCc3nc(Nc4cccc(C)c4)ncc3C2)cc1
#24 Cc1ccc(S(=O)(=O)N2CCN(c3ccc(-n4cccn4)nn3)CC2)c(C)c1
#25 COC(=O)c1ccc(C(=O)N2CCC(c3nc(-c4ccc5c(c4)OCO5)no3)CC2)cc1
assay / compound | 30 | 26 | 24 | 25
NPYLR7 agonist | 3 | -4 | -3 | 2
NPYLR7 agonist max-min | 3 | -11 | -11 | -1

Next section
#31 CCn1nc(C)c(CCNC(=O)c2cccc(C3CCNC3)c2)c1C (centres undefined)
#32 COC(=O)c1ccc(COC(CN2CCN(C(=O)c3cc(C)on3)CC2)c2cccc(OC)c2)cc1 (centres undefined)
#33 Brc1cc(CNCc2nnc3n2CCCCC3)cc2c1OCO2
#34 CCn1ncnc1-c1c(-c2ccccc2)ncn1CCCN1CCCC1=O
#35 CC1Sc2ccc(S(C)(=O)=O)cc2N(Cc2ccc3ccccc3c2)C1=O (centres undefined)
#36 N#CC1C(=N)C(C#N)(C#N)[C@@H](c2cccnc2)[C@@H]2CCCC=C12 (some centres undefined)
assay / compound | 31 | 32 | 33 | 34 | 35 | 36
NPYLR7 agonist | 6 | 5 | 0 | -1 | 7 | 9
NPYLR7 agonist max-min | -1 | 0 | 0 | -5 | 4 | 1

5 compounds picked at random from those above:
#33 Brc1cc(CNCc2nnc3n2CCCCC3)cc2c1OCO2
#35 CC1Sc2ccc(S(C)(=O)=O)cc2N(Cc2ccc3ccccc3c2)C1=O (centres undefined)
#31 CCn1nc(C)c(CCNC(=O)c2cccc(C3CCNC3)c2)c1C (centres undefined)
#36 N#CC1C(=N)C(C#N)(C#N)[C@@H](c2cccnc2)[C@@H]2CCCC=C12 (some centres undefined)
#34 CCn1ncnc1-c1c(-c2ccccc2)ncn1CCCN1CCCC1=O
assay / compound | 33 | 35 | 31 | 36 | 34
NPYLR7 agonist | 0 | 7 | 6 | 9 | -1
NPYLR7 agonist max-min | 0 | 4 | -1 | 1 | -5

Continuation.
#37 Cc1c2c(=O)n(-c3ccccc3)[nH]c2cc(=O)n1Cc1ccc2c(c1)OCO2
#38 Cc1nnc(SC(C)c2ccc(F)c(Cl)c2)n1CC(=O)N(C)C (centres undefined)
#39 N#CC1(C(=O)Nc2nc(-c3cccc(C(F)(F)F)c3)cs2)CCCC1
#40 COc1ccccc1C(=O)OCc1cc(-c2cc3ccccc3o2)on1
#41 CCNc1nc(N)c(C(=C(C#N)C#N)c2ccc(Br)cc2)s1
#42 CCOCCCNC(=O)c1cc(S(=O)(=O)N2CCCCC2)ccc1N1CCCC1
assay / compound | 37 | 38 | 39 | 40 | 41 | 42
NPYLR7 agonist | 2 | -3 | 5 | 0 | -4 | -3
NPYLR7 agonist max-min | 1 | -4 | 4 | -1 | -11 | -6

#43 COc1cc(C(=O)N2CCN(C(=O)c3ccncc3)CC2)cc(OC)c1OC
#44 COc1ccc(Br)cc1CNC(=O)c1c(C)noc1C
#45 O=C1C2CCCN2C(c2ccccc2Cl)N1c1nccs1 (centres undefined)
#46 O=S(=O)(c1cccc(Cl)c1)N1CCCC(OCc2ccccc2Cl)C1 (centres undefined)
#47 Cc1nc(CNC(=O)C(C)CCOc2ccccc2)nc2ccccc12 (centres undefined)
#48 CCCCCCc1ccc(C(=O)N2CCSC2c2cccc(OC)c2OC)cc1 (centres undefined)
assay / compound | 43 | 44 | 45 | 46 | 47 | 48
NPYLR7 agonist | 5 | 2 | 6 | -5 | 9 | -5
NPYLR7 agonist max-min | 3 | 0 | 2 | 1 | 7 | -1

#49 CCc1cn[nH]c1C1CCN(C(=O)c2cc3ncc(CCO)cn3n2)CC1
#50 NC(=O)COC(=O)C12CCC(=O)N1c1cc(Cl)ccc1S2 (centres undefined)
#51 COCC(=O)N1CCCC(C(=O)Nc2cccc(-c3cccc(C)c3)c2)C1 (centres undefined)
#52 CN1CCN(C(CNS(=O)(=O)c2ccc(Cl)cc2)c2ccsc2)CC1 (centres undefined)
#53 O=C(NC[C@H]1CCCC[C@H]1O)C1(Oc2cccc3ncccc23)CCNCC1
#54 Cc1ccc(S(=O)(=O)N2CCCCC2)cc1NC(=O)Cn1[nH]c(=O)c2ccccc2c1=O
assay / compound | 49 | 50 | 51 | 52 | 53 | 54
NPYLR7 agonist | -4 | 0 | 4 | -1 | 10 | 11
NPYLR7 agonist max-min | -3 | 0 | 4 | -10 | 17 | 10

(more compounds)
Below each SMILES: NPYLR7 agonist	NPYLR7 agonist max-min
(55) O=C(NCCCN1CCCC1=O)c1ccc(-c2cc(-c3cccc(C(F)(F)F)c3)n[nH]2)cc1
  0	12
(56) CCc1ccc(N2CC(c3nc4ccccc4n3CC(=O)OC)CC2=O)cc1 (centres undefined)
  4	-1
(57) O=C(C1CCC(CNc2c(N3CCCCC3)c(=O)c2=O)CC1)N1CCN(C2CCCCC2)CC1 (centres undefined)
  3	2
(58) CCC(C)C(NS(=O)(=O)c1cccc2cccnc12)C(=O)Nc1nnc(-c2ccc(N(C)C)cc2)s1 (centres undefined)
  -10	-3
(59) C[C@@H](NC(=O)c1ccc(-n2nc(-c3cccc(C(F)(F)F)c3)cc2N)cc1)C(C)(C)C
  -5	-9
(60) CCOc1ccc(-n2ccn3c(CC(C)CC(=O)NCc4ccccc4Cl)nnc3c2=O)cc1 (centres undefined)
  3	-4
(61) COCCN(Cc1ccc(OS(=O)(=O)c2cccc(C(F)(F)F)c2)cc1)S(=O)(=O)c1c(C)cc(C)cc1C
  19	24
(62) C=CCN(Cc1ccco1)Cc1cc2ccccc2n(C)c1=O
  6	7
(63) Fc1ccc(-c2csc3ncnc(Sc4nnnn4C4CC4)c23)cc1
  9	14
(64) CS(=O)(=O)Nc1ccccc1C1=NN(C(=O)c2cccs2)C(c2ccccc2F)C1 (centres undefined)
  3	1
(65) CCNC(=O)N(Cc1cccnc1)Cc1ccccc1C
  3	3
(66) Cc1[nH]n(-c2ccccc2)c(=O)c1C(C[N+](=O)[O-])c1cccc(Br)c1 (centres undefined)
  0	-3
(67) CCOC(=O)c1nn(-c2ccccc2)c(=O)cc1OS(=O)(=O)N(C)C
  -1	5
(68) Cc1cccc(COC(=O)c2nnn(-c3ccc(Br)cc3)c2C)c1
  -10	-16
(69) Cc1c(-c2ccccc2)nc2ccccc2c1C(=O)NCc1ccc(Cl)cc1
  37	13
(70) CCc1ccc(N2C(=O)Cc3c2nc(N)c(C#N)c3N)cc1
  9	7
(71) Cc1noc(C)c1C(=O)NCC(O)c1cc(Cl)cc(Cl)c1 (centres undefined)
  4	1
(72) CC1Oc2ccc(C(F)(F)F)cc2N(c2cccnc2)C1=O (centres undefined)
  -5	-6
(73) Cc1nn(CCO)cc1CN1CCN(S(=O)(=O)c2ccccc2)CC1
  -3	-9
(74) CCOC(=O)c1c(CN2CCC(C)CC2)n(C)c2cc(Br)c(OC)cc12
  0	-3
(75) Cc1cc(NC(=O)C2CCN(C(=O)c3ccc([N+](=O)[O-])o3)CC2)no1
  1	-2
(76) CN(C)c1ccc(NC(=O)C2CCC2)cc1CN(Cc1ccc(F)cc1)S(C)(=O)=O
  0	3
(77) COCCCN(CC(=O)N1CCc2sccc2C1COc1ccccc1C)C(=O)c1ccc2c(c1)OCO2 (centres undefined)
  0	6
(78) CN1CCN(c2nc3ccccn3c(=O)c2/C=C2\SC(=S)N(CC3CCCO3)C2=O)CC1 (centres undefined)
  -8	-13
(79) CCOC(=O)C1(Cc2ccccc2F)CCCN(C(=O)c2ccc3c(c2)OCCO3)C1 (centres undefined)
  5	4
(80) CC(C(=O)O)n1cc(-c2ncc[nH]2)c2ccccc21 (centres undefined)
  23	12
(81) O=C(CCl)N1CCN(S(=O)(=O)c2ccccc2F)CC1
  -1	-4
(82) CCOc1cc(C)c(C(C)C)cc1S(=O)(=O)NC1CCCC1
  7	4
(83) O=C(CSc1nc(Cl)cc(N2CCN(c3cccc(Cl)c3)CC2)n1)NCc1cccc(C(F)(F)F)c1
  2	6
(84) Cc1cc(NC(=O)c2nc3ccccc3s2)on1
  0	-3
(85) CCOc1ccc(C(=O)CSc2nccn(-c3cccc4ccccc34)c2=O)cc1
  -9	-11
(86) Cc1ccc(N2C(=O)N(Cc3ccccc3)c3ccccc3S2(=O)=O)cc1F
  5	6
(87) CN(C)C1Cc2ccccc2N(S(=O)(=O)CC2CCCCO2)C1 (centres undefined)
  8	7
(88) CN(CC1CC(c2ccc(Cl)cc2)=NO1)CC(O)c1ccccc1 (centres undefined)
  -2	3
(89) CN1CCN2CCN(S(=O)(=O)c3ccc(-c4cnco4)s3)CC2C1=O (centres undefined)
  -1	-2
(90) CCC(CNC(=O)C(=O)N1CCc2ccccc2C1)OC (centres undefined)
  5	0
(91) CCOCCCN(CC(=O)N(Cc1ccc2c(c1)OCO2)Cc1ccc(C)o1)C(=O)C(CC)c1ccccc1 (centres undefined)
  -1	0
(92) COc1ccccc1CCN1CCC(CN(C)C(=O)c2snnc2C)CC1
  -2	-3
(93) Cc1cccc(NC(=O)CCC2CCN(C(=O)CCN3CCCCC3=O)CC2)c1
  22	12
(94) CCCN(C)c1cc(C(F)(F)F)nc(SCc2ccc(C(=O)N3CCN(C)CC3)o2)n1
  5	-6
(95) Nc1nc2c(-c3ccccc3CO)cc(F)cc2s1
  -1	-4
(96) CC1=NC2=C(C(=O)CC(C)(C)C2)C(c2ccc(Cl)c(Cl)c2)C1C#N (centres undefined)
  5	3
(97) CC(C)C(OC(=O)c1ccc2c(c1)COC2)C(=O)N1CCC(C(N)=O)CC1 (centres undefined)
  11	6
(98) Cc1cc(C)n(-c2nc(C)c(C)c(=O)n2CC(=O)NCc2ccccc2Cl)n1
  -4	0
